KAT2A inh = blocks human GCN5L2 histone acetyltransferase | GCN5L2 HAT assay, ThioGlo1 CoA-SH fluorescence | Potency, µM (doses to about 58.9 µM), without a hit: at the highest dose activity change, negative = inhibition, actives largely listed as inhibitors | actives 0.21% (n = 390,000); active = well fitted inhibition curve with a large enough effect; inconclusive = small, poorly fitted or top-dose-only effect, or another doubt; inactive = no such curve, though single readings can be large or run the other way
Target sequence (Q92830 whole entry, looked up): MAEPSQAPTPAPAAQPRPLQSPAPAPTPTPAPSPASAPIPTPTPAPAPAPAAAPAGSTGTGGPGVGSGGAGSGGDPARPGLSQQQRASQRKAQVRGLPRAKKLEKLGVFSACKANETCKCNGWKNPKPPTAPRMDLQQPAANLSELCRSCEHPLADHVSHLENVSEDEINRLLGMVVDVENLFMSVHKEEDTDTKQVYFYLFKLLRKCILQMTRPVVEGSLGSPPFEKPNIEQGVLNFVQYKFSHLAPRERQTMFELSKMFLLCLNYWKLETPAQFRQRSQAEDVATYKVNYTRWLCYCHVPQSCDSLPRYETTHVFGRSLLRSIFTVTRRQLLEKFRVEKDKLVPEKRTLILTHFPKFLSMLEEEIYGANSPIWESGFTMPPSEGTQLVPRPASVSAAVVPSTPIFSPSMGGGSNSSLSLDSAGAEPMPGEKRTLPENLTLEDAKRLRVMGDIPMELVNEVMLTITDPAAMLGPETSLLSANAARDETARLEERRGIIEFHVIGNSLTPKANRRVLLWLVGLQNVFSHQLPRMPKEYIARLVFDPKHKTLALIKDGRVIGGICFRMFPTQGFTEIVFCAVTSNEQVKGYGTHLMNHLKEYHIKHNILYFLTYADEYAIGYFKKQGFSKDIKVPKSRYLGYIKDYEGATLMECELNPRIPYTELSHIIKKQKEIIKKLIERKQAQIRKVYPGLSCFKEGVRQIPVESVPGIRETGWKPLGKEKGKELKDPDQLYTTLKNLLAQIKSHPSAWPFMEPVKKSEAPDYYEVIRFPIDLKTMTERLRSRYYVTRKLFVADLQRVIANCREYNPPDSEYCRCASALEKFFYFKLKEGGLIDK
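qHTS, 1536-well. 20nM enzyme, pH 7.5 HEPES/EDTA/Tween-20 buffer; 15 min compound preinc., RT. Start: 75uM H3(1-25), 70uM AcCoA, 50uM ThioGlo1. Read Ex340/Em540 at t=0 (autofluorescence flag) and t=20 min.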
Active calls of the source: *; ? = inconclusive. % is set by controls: 0 for no effect and ±100 for the full control effect; potency is the fitted concentration of half-maximal effect. This is a subset, and most or all hits are left out here.

Structure: CCCNC(=O)c1ccc(N2CC3CC(C2)c2cccc(=O)n2C3)c(NC(=O)Nc2ccc(CC)cc2)c1 (centres undefined)
  KAT2A inh: -5.3%
Structure: CCc1ccc(NC(=O)c2sc3nc(C)nc(N4CCN(c5ccccn5)CC4)c3c2C)cc1
  KAT2A inh: -1.2%
Structure: CCN(CC)C(=S)NC(=O)c1ccc(Cl)cc1Cl
  KAT2A inh: -7.0%
Structure: CS(=O)(=O)N1CCN(C(=O)Nc2ccccc2)CC1
  KAT2A inh: -5.4%
Structure: Cc1ccc2c(c1)NC(=O)C(CC(=O)NCc1ccc(F)cc1)O2 (centres undefined)
  KAT2A inh: -0.4%
Structure: CC(NC(=O)c1nn(C)c2c1CS(=O)(=O)c1ccccc1-2)c1ccccc1 (centres undefined)
  KAT2A inh: -1.3%
Structure: CCCCN(c1ccccc1)S(=O)(=O)c1ccc2c(c1)CC(C)N2C(=O)C1CC1 (centres undefined)
  KAT2A inh: -15.9%
Structure: Cc1ccc(NC(=O)CCNS(=O)(=O)c2ccc3c(c2)c(=O)n(C)c(=O)n3C)cc1C
  KAT2A inh: -4.0%
Structure: COC(=O)c1cc(COc2ccc3oc(C)c(C(=O)OC(C)C)c3c2)c(C)o1
  KAT2A inh: -8.5%
Structure: CN(C)CCOc1ccc(-c2c(-c3ccsc3)sc3ccccc23)cc1
  KAT2A inh: -7.4%
Structure: CC(OC(=O)CCC(=O)c1ccc(Cl)s1)C(=O)NC1(C#N)CCCCC1 (centres undefined)
  KAT2A inh: -6.5%
Structure: Nc1ccc(S(=O)(=O)NCC(=O)OCCOc2ccccc2)cc1[N+](=O)[O-]
  KAT2A inh: -8.1%
Structure: CC(C)(Cc1ccccc1)/[N+]([O-])=C\c1ccc(C(F)(F)F)cc1
  KAT2A inh: -1.8%
Structure: COc1ccc(CN(C(=O)c2ccccc2OC)C2CCS(=O)(=O)C2)cc1 (centres undefined)
  KAT2A inh: -3.1%
Structure: C=CCNc1nc(-c2ccc([N+](=O)[O-])cc2)cs1
  KAT2A inh: -0.1%

Structure: CCc1nn(CCCC(=O)N2CCC(C)CC2)c(=O)c2cc3occc3n12
  KAT2A inh: -1.3%
Structure: CCc1ccccc1N1CC(C(=O)O)CC1=O (centres undefined)
  KAT2A inh: 1.8%
Structure: CCOc1ccc(Br)cc1CN(CC)CC
  KAT2A inh: -4.0%
Structure: O=C(NCCCN1CCOCC1)C1CC(=O)N(C2CCCCC2)C1 (centres undefined)
  KAT2A inh: ?
Structure: CCOc1ccc(NC(=O)COC(=O)Cn2cnc3ccccc32)cc1
  KAT2A inh: -4.0%
Structure: CCC(=O)NCCCOc1ccccc1
  KAT2A inh: -10.8%
Structure: CC(C)CC1NC(=O)N(CC(=O)NC2CCCc3ccccc32)C1=O (centres undefined)
  KAT2A inh: -1.2%
Structure: CCOc1ccc(S(=O)(=O)NC(=O)c2ccccc2)cc1
  KAT2A inh: -11.4%
Structure: O=C(Cc1cccc2ccccc12)NC(=S)Nc1cccc(C(=O)O)c1
  KAT2A inh: -5.6%
Structure: CC(C)[C@H](NC(=O)OCc1ccccc1)C(=O)N[C@H](C=O)Cc1ccccc1
  KAT2A inh: ?
Structure: COc1ccc(-c2cc(C(=O)NCCCN3CCOCC3)on2)cc1OC
  KAT2A inh: -1.9%
Structure: Cc1nc(C2CC(=O)OC23CCCCC3)cs1 (centres undefined)
  KAT2A inh: -3.0%
Structure: CCN(c1ccccc1)S(=O)(=O)c1nnc(NC(=O)c2cccs2)s1
  KAT2A inh: -14.5%
Structure: COc1cccc(COc2ncnc3sccc23)c1
  KAT2A inh: -7.6%
Structure: COc1ccccc1OCCNC(=O)C1CC(=O)N(Cc2ccc(C)cc2)C1 (centres undefined)
  KAT2A inh: -18.9%

Structure: Cc1cc(F)ccc1NC(=O)c1ccc(NS(=O)(=O)c2cc(C(C)(C)C)ccc2C)cc1
  KAT2A inh: -8.8%
Structure: O=C(O)c1ccc2c(c1)S(=O)(=O)N=C1CCCCCN12
  KAT2A inh: -0.7%
Structure: O=C(NCC1CCCO1)C1CCCN(S(=O)(=O)c2cccc3nsnc23)C1 (centres undefined)
  KAT2A inh: -7.7%
Structure: CS(=O)(=O)Nc1ccc(C2=NN(S(C)(=O)=O)C(c3ccc4c(c3)OCO4)C2)cc1 (centres undefined)
  KAT2A inh: -1.9%
Structure: CC(=O)Nc1ccc(NC(=O)C(C)OC(=O)c2cccs2)cc1 (centres undefined)
  KAT2A inh: -15.3%
Structure: COc1ccccc1-c1ccc(=O)n(CC(=O)NC2CCc3ccccc32)n1 (centres undefined)
  KAT2A inh: -0.9%
Structure: COc1cccc(C(=O)NCc2cn3ccsc3n2)c1
  KAT2A inh: -0.2%
Structure: Cn1cnnc1SCC(=O)Nc1cc(C(F)(F)F)ccc1N1CCOCC1
  KAT2A inh: 5.3%
Structure: CCCn1c(=N)n(CC(=O)c2ccc(Cl)cc2)c2ccccc21
  KAT2A inh: 2.7%
Structure: O=C(Nc1ccccn1)C1CCN(S(=O)(=O)c2ccc(Cl)cc2)CC1
  KAT2A inh: -0.1%
Structure: CCOC(=O)c1[nH]c2ccccc2c1NC(=O)CN(C)C
  KAT2A inh: -22.6%
Structure: O=C(COc1ccccc1)NCC(=O)N1CCCCCC1
  KAT2A inh: -0.4%
Structure: Cc1ccc(C(=O)NCCCNC(=O)c2ccco2)cn1
  KAT2A inh: -0.1%
Structure: Cc1cccc(NC(=O)CSc2nc(-c3ccccc3)c(C#N)c(=O)[nH]2)c1C
  KAT2A inh: -8.0%
Structure: CCOC(=O)N1CCN(C(=S)NC2CCCC2)CC1
  KAT2A inh: -10.7%

Structure: Cn1c(CCNC(=O)c2cccs2)nnc1SCC(=O)Nc1nc(-c2ccccc2)cs1
  KAT2A inh: -6.9%
Structure: COc1ccc(C)cc1NC(=O)CN1c2ccccc2S(=O)(=O)c2ccccc21
  KAT2A inh: 14.1%
Structure: COc1ccc(NC(=O)CN2CCN(S(=O)(=O)c3ccc(Br)cc3)CC2)cc1
  KAT2A inh: -6.5%
Structure: CCOC(=O)C(NC=O)(NC(C)(C)C)C(=O)OCC
  KAT2A inh: 0.6%
Structure: Cc1ccc(-n2nc3cc(C)c(NC(=O)c4cccnc4)cc3n2)cc1
  KAT2A inh: -0.1%
Structure: COc1ccc(C(=O)COC(=O)Cc2n[nH]c(=O)c3ccccc23)c(OC)c1
  KAT2A inh: -5.1%
Structure: C=CCN(Cc1nc(-c2cc(OC)c3c(c2)OCO3)oc1C)C1CCS(=O)(=O)C1 (centres undefined)
  KAT2A inh: 27.6%
Structure: COCCN(C(=S)Nc1cccc(C)c1)C(C)c1cccs1 (centres undefined)
  KAT2A inh: -0.1%
Structure: Cc1sc2ncnc(N3CCC(C(=O)Nc4nnc(SCc5ccccc5F)s4)CC3)c2c1C
  KAT2A inh: -3.5%
Structure: C=CCn1c(SCC(=O)Nc2cccnc2Cl)nnc1-c1ccc(C(C)(C)C)cc1
  KAT2A inh: -0.8%
Structure: CN(C1CCCC1)C1CCN(C(=O)CNC(=O)/C=C/c2ccccc2)CC1
  KAT2A inh: -8.9%
Structure: CCn1c(SCC(=O)NCc2ccccc2)nc2ccccc2c1=O
  KAT2A inh: -1.3%
Structure: COC(=O)[C@H](C)NC(=O)Nc1cccc(C(F)(F)F)c1
  KAT2A inh: 3.0%
Structure: Cc1ccc(S(=O)(=O)N2CCC(C(=O)C3C(=O)CC(C)(C)CC3=O)CC2)cc1
  KAT2A inh: -13.0%
Structure: Cc1coc2cc3oc(=O)cc(C)c3cc12
  KAT2A inh: -1.2%

Structure: CCOc1ccc(C(=O)c2c(N)c(-c3nc(-c4ccc5c(c4)OCO5)cs3)c3ccccn23)cc1
  KAT2A inh: 1.9%
Structure: COc1cc(C(=O)Oc2cc(N)n(S(=O)(=O)c3ccccc3)n2)cc(OC)c1OC
  KAT2A inh: -6.2%
Structure: CC(C)C(NC(=O)c1ccc(Br)cc1)C(=O)NC1=NCCS1 (centres undefined)
  KAT2A inh: -11.6%
Structure: COc1ccccc1CNC(=O)CNC(=O)[C@@H]1Cc2ccccc2CN1
  KAT2A inh: -17.4%
Structure: COc1cccc(CNC(=O)C2CCN(S(=O)(=O)N3CC(C)CC(C)C3)CC2)c1 (centres undefined)
  KAT2A inh: -2.0%
Structure: CCSc1nc(=S)n(-c2ccccc2)c(C)c1C(C)=O
  KAT2A inh: 0.0%
Structure: Cc1cc(C)cc(C(=O)Nc2ccc3[nH]c(=O)[nH]c3c2)c1
  KAT2A inh: -6.3%
Structure: COc1ccc(Oc2nc3c(c(=O)n(C)c(=O)n3C)n2Cc2cccc(OC)c2)cc1
  KAT2A inh: -0.8%
Structure: Cc1ccc(CNC(=O)c2sc3nc(-c4ccc(F)cc4)ccc3c2N)cc1
  KAT2A inh: ?
Structure: CCCOn1c(OCC(C)C)nc2ccccc2c1=O
  KAT2A inh: -3.1%
Structure: CCOC(=O)c1cnc2c(ccc3ccccc32)c1Nc1ccccc1OC
  KAT2A inh: 6.3%
Structure: CN(CC(=O)NCCN1CCCCCC1)S(=O)(=O)c1cccc2nsnc12
  KAT2A inh: -4.8%
Structure: Cc1ccc(N2CCN(C(=O)c3cccc([N+](=O)[O-])c3)CC2)cc1Cl
  KAT2A inh: -12.9%
Structure: Nc1n[nH]c2c1C1(CCCCC1)Cc1ccccc1-2
  KAT2A inh: -12.3%
Structure: COc1ccc(N(CC(=O)NC2CCCCC2)C(=O)CNC(=O)c2ccco2)c(OC)c1
  KAT2A inh: -2.1%

Structure: CSc1nc2ccccc2n1CC(=O)Nc1c(C)n(C)n(-c2ccccc2)c1=O
  KAT2A inh: 1.2%
Structure: COc1cccc(-c2cc(C(=O)NCc3ccc(Cl)cc3)no2)c1
  KAT2A inh: -5.5%
Structure: O=C1C=C(c2ccc(Cl)cc2)C(=O)N1Nc1ccccc1
  KAT2A inh: -10.4%
Structure: CC(=O)c1c(C)[nH]c(C(=O)OCC(=O)Nc2ccc(C)cc2[N+](=O)[O-])c1C
  KAT2A inh: -4.2%
Structure: N#Cc1ccc(-c2ccc(OCC(=O)NCC(=O)Nc3ccc(F)c(F)c3F)cc2)cc1
  KAT2A inh: -1.6%
Structure: COc1ccc(-c2cc3ncnc(Cl)c3s2)cc1
  KAT2A inh: -10.0%
Structure: O=C1NC(=S)N(c2cccc(Cl)c2)C12CCCCC2
  KAT2A inh: -1.8%
Structure: CC(=O)Nc1ccc(S(=O)(=O)NCC2(N3CCOCC3)CCCCC2)cc1
  KAT2A inh: 0.1%
Structure: Cc1ccc(NC(=O)Nc2ccc([N+](=O)[O-])cc2)nc1
  KAT2A inh: -9.8%
Structure: CCOc1ccc(-c2cnc(SCC(N)=O)nc2N)cc1
  KAT2A inh: -9.2%
Structure: Cc1cc(C)c(S(=O)(=O)N2CCN(c3ccc([N+](=O)[O-])c(NCC4CCCO4)c3)CC2)c(C)c1 (centres undefined)
  KAT2A inh: -13.8%
Structure: Cc1ccc(NC(=O)c2ccc(=O)[nH]c2)cc1S(=O)(=O)N1CCCCCC1
  KAT2A inh: -1.6%
Structure: CCOC(=O)c1ccc(NC(=O)c2cn(-c3ccccc3)nc2-c2ccncc2)cc1
  KAT2A inh: 1.2%
Structure: COc1ccc(NC(=O)CSc2ncnc3[nH]ncc23)cc1
  KAT2A inh: 0.7%
Structure: CCOC(=O)C(=O)NCC(c1cccnc1)N1CCN(c2ccccc2)CC1 (centres undefined)
  KAT2A inh: -8.5%

Structure: O=C(CCC1CCCCC1)NCc1ccccn1
  KAT2A inh: -11.4%
Structure: CC(C)(C)c1ccc(C(=O)NCC(=O)OCc2ccc([N+](=O)[O-])cc2)cc1
  KAT2A inh: 23.4%
Structure: CCn1ncc(/C=N/N=C2\CCC3C4CCc5cc(O)ccc5C4CCC23C)c1C (centres undefined)
  KAT2A inh: -2.1%
Structure: CCN(Cc1ccccc1)C(=O)Cn1c(=O)n(CCC(=O)N2CCCCC2)c(=O)c2sccc21
  KAT2A inh: 1.6%
Structure: COC(=O)c1cc(NC(=O)C2COc3ccccc3O2)ccc1Cl (centres undefined)
  KAT2A inh: -1.0%
Structure: CC1CCN(S(=O)(=O)c2ccc(NC(=O)c3ccncc3)cc2)CC1
  KAT2A inh: -22.4%
Structure: Cc1cc(NC(=O)c2c(-c3ccccc3Cl)noc2C)no1
  KAT2A inh: -0.3%
Structure: c1cn2cc(CN3CCOCC3)nc2s1
  KAT2A inh: -4.6%
Structure: Cc1ccc2cccc(NC(=O)c3ccc(-c4ccc(Cl)cc4Cl)o3)c2n1
  KAT2A inh: -6.4%
Structure: CC1CCCN(CC(=O)Nc2ccc(S(=O)(=O)NC3CCCCC3)cc2)C1 (centres undefined)
  KAT2A inh: -15.7%
Structure: O=C(OCc1c(Cl)cccc1Cl)c1ccccn1
  KAT2A inh: -12.8%
Structure: O=c1/c(=C\c2cccc(O)c2)sc2nc(-c3ccccc3)c(-c3ccccc3)n12
  KAT2A inh: -11.5%
Structure: O=C(NCc1ccc(Cl)cc1)C1CCCN(c2nc3ccccc3n3cccc23)C1 (centres undefined)
  KAT2A inh: -10.6%
Structure: COc1cc(NC(=O)C2CCCO2)c(C(=O)O)cc1OC (centres undefined)
  KAT2A inh: -2.1%

Screening results: PubChem BioAssay, National Center for Advancing Translational Sciences (NCATS)
